# Yeast UUG start: yeast start codon fidelity modulation | S. cerevisiae UUG-firefly luciferase reporter, luminescence/redox ratio | actives 0.13% (n = 350,000) | activity score, % at 18.7 µM;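 active = replicate mean at a twofold rise or more, about +100% in these data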;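 also: firefly luciferase made from a UUG start codon reports start codon fidelity; reporter light over untreated wells divided by growth signal over untreated wells; some hits fall short of that in this replicate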
# Rce1 inhib: inhibitors of yeast Ras-converting enzyme; Q03530; actives 0.27% (n = 290,000); yeast membranes, quenched prenylated peptide cleavage fluorescence; calls only; AID 2563;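 active = fall in fluorescence gain of 50% or more versus controls, with final raw signal at or below 3038400; inconclusive = same 50% fall but final raw signal above 3038400; inactive = fall in fluorescence gain under 50%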;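 also: plate controls were neutral control wells for no effect and wells lacking membranes for full effect; tested at 10 µM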
# Target sequence (Q03530 whole entry, looked up): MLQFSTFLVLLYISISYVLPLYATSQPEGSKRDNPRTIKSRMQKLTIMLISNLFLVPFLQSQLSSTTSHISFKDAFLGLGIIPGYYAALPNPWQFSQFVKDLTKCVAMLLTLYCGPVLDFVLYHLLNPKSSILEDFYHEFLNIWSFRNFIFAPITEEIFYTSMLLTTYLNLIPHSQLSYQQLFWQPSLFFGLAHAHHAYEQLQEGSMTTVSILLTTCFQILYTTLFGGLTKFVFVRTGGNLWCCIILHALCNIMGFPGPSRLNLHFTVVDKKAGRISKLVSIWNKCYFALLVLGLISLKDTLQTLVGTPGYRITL
# Env fusion inh: inhibitors of HIV Env-mediated cell fusion; AID 651610; inhibition, % at 12.3 µM; HeLa-JRFL Env/CEM21 cell fusion, luciferase; actives 1.1% (n = 360,000);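 active = mean replicate inhibition score of at least 50 and every replicate individually at or above 50; inconclusive = only one of the two criteria met; inactive = mean below 50 and not all replicates reaching 50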;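 also: 0% = plate neutral controls and 100% = maraviroc near 300 nM; one replicate is shown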
# eIF4H FP inh: inhibitors of RNA binding by human eIF4H | eIF4H fluorescence polarization binding assay | inhibition, % at 35 µM | actives 0.94% (n = 290,000) | AID 2012;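 active = 50% or more with normal probe brightness, or confirmed in later tests; inconclusive = above 50% with abnormal brightness, or retests that disagree; inactive = below 50% or failed in later tests; about a fifth of its hits are not listed in these tables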;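 also: calls also rest on retests at 20 µM and on dose response follow-up; 0% = protein and probe with vehicle and 100% = probe without protein; strong numbers were not always called active; many hits fall short of the cut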
# PABP FP inh: blocks human PABP binding to poly(A) RNA. AID 2014. actives 1% (n = 290,000). P11940. inhibition, % at 35 µM. fluorescence polarization;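 active = 50% or more with normal probe brightness, or confirmed in later tests; inconclusive = above 50% with abnormal brightness, or retests that disagree; inactive = below 50% or failed in later tests; about a fifth of its hits are not listed in these tables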;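 also: calls also rest on retests at 20 µM and on dose response follow-up; controls were probe without protein and protein plus probe with vehicle; some compounds called inactive have numbers as strong as hits; many hits fall short of the cut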
# CSC inhib: cancer stem cell inhibition | cancer stem cell-like cells viability, luminescence | inhibition, % at 7.5 µM | actives 1.1% (n = 300,000) | AID 2717;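 active = mean at 75% or more and at least half the replicates too; inconclusive = mean and replicates disagree; tested in HMLE shEcad cells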;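 also: 0% = median of negative and 100% = median of positive control wells; the first replicate is given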
# MT1-MMP act inh: blocks activation of human MT1-MMP; actives 0.061% (n = 360,000); GFP/RFP ratio change, % at 20 µM; P50281; HT1080 RFP-PRO-GFP cells, GFP/RFP ratio fluorescence, overnight; percent of plate control window, DMSO zero;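 active = GFP/RFP ratio change of at least 30% with cell ATP level not reduced by more than half and red fluorescence within 50% of control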; also: strong numbers were not always called active
#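 Assay system – RFP-PRO-GFP reporter HT1080 cells · Compound dosing – single dose of 20 µM compound, 1% DMSO final · Incubation – overnight compound exposure at 37 °C · Measure – GFP/RFP fluorescence ratio · Benchmarks – DMSO wells and RFP-L50D-GFP cells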
# eIF4H FP inh retest: further read-out of eIF4H FP inh, marked with its call; inhibition, %; compound at 20 µM; confirmation average;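 mean of two retest wells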
# PABP FP inh retest: recorded beside PABP FP inh, whose call it bears; inhibition, %; compound at 20 µM; confirmation repeats;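 mean of two retest wells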
# MT1-MMP act inh RFP: further read-out of MT1-MMP act inh, marked with its call; RFP signal change, %; measured here: RFP expression control read;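 0 = vehicle wells; hits needed this value within 50% of zero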
# Starred values were filed as active, the others as inactive; i = inactive; ? = inconclusive; · = no result given; & = joins results of further samples. An unsorted share of the library; overall some 2.9% were active at least once.
SMILES,Yeast UUG start,Rce1 inhib,Env fusion inh,eIF4H FP inh,PABP FP inh,CSC inhib,MT1-MMP act inh,MT1-MMP act inh RFP,others
COc1ccc(CCN2CC(C(=O)NCCN3CCOC3=O)CCC2=O)cc1 (stereo not given),-15,i,·,-20,-8,-17,4,5,
CCc1ccc(N(C(C)=O)C2C=CS(=O)(=O)C2)cc1 (stereo not given),-12,i,-38,3,4,-7,4,6,
O=C(OCC(=O)N1CCc2ccccc21)c1ccc([N+](=O)[O-])cc1,-5,·,·,·,·,9,1,3,
CCN(CC)S(=O)(=O)c1cccc(C(=O)NC(C(=O)NC2=NCCS2)C(C)C)c1 (stereo not given),-9,i,·,-2,2,-21,0,2,
C=CCn1c(Oc2cc(C)ccc2C)nc2c1c(=O)n(C)c(=O)n2C,2,i,·,-4,-4,-14,3,-3,
COc1ccc(C(=O)CCN2CCN(c3ccccc3OC)CC2)cc1,-10,i,-22,-9,-1,16,-1,-3,
Cc1ccc(S(=O)(=O)N(C(=O)c2ccco2)c2cc3sc(=O)oc3c3ccccc23)cc1,·,i,-104,12,-5,46,6,13,
COc1ccc(-c2nc3n(c(=O)c2C#N)CCCS3)cc1,-10,i,·,-7,-14,-14,2,4,
COc1ccc(-c2noc(N3CCC(C(=O)NCc4ccc(F)cc4)CC3)n2)cc1,-8,i,-52,4,-13,4,4,-11,
COc1ccccc1NC(=O)c1ccccc1S(=O)(=O)c1ccc([N+](=O)[O-])cc1,-7,i,-5,-12,-4,-9,1,-1,
CCS(=O)(=O)N1CCCC(C(=O)NCCc2ccc(OC)c(OC)c2)C1 (stereo not given),-4,i,·,5,6,-4,1,-1,
COc1ccc(CNC(=O)CN(C)Cc2ccccc2F)cc1OC,-14,i,6,-2,-4,-4,3,2,
Cc1ccc2c(c1)[C@H]1[C@H](CO2)[C@H](c2ccccc2)[C@]2(C)C(=O)N(Cc3ccccc3)CC(=O)N12,5,·,-11,·,·,·,-2,-4,
Cc1cc(/C=C(/C#N)C(=O)Nc2ccc(Cl)cc2)c(C)n1-c1cccnc1,-17,i,13,51,6,3,-1,-3,eIF4H FP inh retest=2;PABP FP inh retest=5
COc1ccccc1NC(=O)C(CC=C(Cl)Cl)C(C)=O (stereo not given),-10,i,i,6,0,-3,-1,0,
C=CCOc1ccc(/C=C/C(=O)OCc2csc(CC(=O)Nc3ccccc3C)n2)cc1,-19,·,14,·,·,·,3,-2,
NC(=O)c1ccc(NC(=O)Cc2cccs2)cc1,1,i,-5,32,8,-2,-2,1,
COc1ccc(C(=O)Nc2c(N)nc(SCC(=O)N3CCC(C)CC3)[nH]c2=O)cc1,-8,i,-13,-1,3,-7,-2,7,
CCc1ccc(C2=NN(C(C)=O)C(c3ccco3)C2)cc1 (stereo not given),·,i,-40,4,8,20,-1,-4,
CCOC(=O)c1ccc(N2CCOCC2)c(NS(=O)(=O)c2ccc(F)cc2)c1,2,i,-12,-10,-5,-5,-2,-5,

# Reprinted from the results shown (four entries):
SMILES,Yeast UUG start,Rce1 inhib,Env fusion inh,eIF4H FP inh,PABP FP inh,CSC inhib,MT1-MMP act inh,MT1-MMP act inh RFP,others
COc1ccc(CCN2CC(C(=O)NCCN3CCOC3=O)CCC2=O)cc1 (stereo not given),-15,i,·,-20,-8,-17,4,5,
CCc1ccc(N(C(C)=O)C2C=CS(=O)(=O)C2)cc1 (stereo not given),-12,i,-38,3,4,-7,4,6,
O=C(OCC(=O)N1CCc2ccccc21)c1ccc([N+](=O)[O-])cc1,-5,·,·,·,·,9,1,3,
CCN(CC)S(=O)(=O)c1cccc(C(=O)NC(C(=O)NC2=NCCS2)C(C)C)c1 (stereo not given),-9,i,·,-2,2,-21,0,2,

# (list continues)
SMILES,Yeast UUG start,Rce1 inhib,Env fusion inh,eIF4H FP inh,PABP FP inh,CSC inhib,MT1-MMP act inh,MT1-MMP act inh RFP,others
C=CCNC(=O)c1ccccc1NC(=O)Cc1ccccc1[N+](=O)[O-],0,i,-12,12,-3,-9,8,6,
CCC(=O)c1cn(CC(=O)Nc2ccccc2)c2ccccc12,-12,i,-54,8,9,1,-1,-2,
O=[N+]([O-])c1ccccc1CN1CCN(Cc2ccccn2)CC1,·,i,-8,2,-5,12,1,4,
N#Cc1ccc(OCC(=O)NC2CCCCCC2)cc1,-2,·,-9,·,·,·,1,2,
Cc1cc([N+](=O)[O-])cc2c1NC(c1ccccn1)C1CC=CC21 (stereo not given),·,i,-12,36,15,-1,2,3,
CCOC(=O)c1c(NC(=O)CSc2nnc(-c3cccnc3)n2Cc2ccco2)sc(C)c1C,1,i,24,6,9,16,-5,-1,
COc1cccc(/C=N/NC(=O)CSc2nnc(C)n2-c2ccccc2)c1O,-21,i,·,5,-2,77*,4,1,
Cc1ccc(CNC(=O)CO/N=C/c2ccc3c(c2)OCO3)cc1,-2,i,-16,-11,0,16,1,2,
COc1cc(/C=C/CNC[C@H]2O[C@@H](n3cnc4c(=O)[nH]c(N)nc43)[C@H](O)[C@@H]2O)ccc1O,-12,·,-36,·,·,·,0,3,
O=C(CCS(=O)(=O)c1cccc2nonc12)NCc1ccc(Cl)cc1,-4,·,1,-7,4,-19,0,0,
N#Cc1cccc(C#N)c1NCC1CCCO1 (stereo not given),-15,i,2,1,-5,-6,-2,-1,
CC(=O)Nc1ccc(S(=O)(=O)NC2=NCN(c3ccc([N+](=O)[O-])cc3)CN2)cc1,-16,i,-12,8,1,-5,0,2,
COc1ccc(/C=C2\C(=O)ON=C2c2ccccc2)cc1OC,-7,i,-5,-4,21,-5,0,1,
Cc1ccnc(SCC(=O)Nc2cc(C)on2)n1,-18,i,10,10,-2,-25,2,3,
CCCCCCSc1ccc(-c2nc3ccc(Cl)cn3c2NCCCC)cc1OC,6,·,15&-23,·,·,·,7&3,-2&-1,
O=C(COC(=O)CCc1ccc(S(=O)(=O)N2CCOCC2)cc1)Nc1cccc(Cl)c1,·,·,-13,-14,0,-13,0,3,
COc1ccc(NC(=O)CCN2CCN(S(=O)(=O)c3ccc(F)cc3)CC2)cc1,-5,i,10,1,5,-21,0,3,
Cc1c(CCC(=O)NCC(=O)O)c(=O)oc2cc3occ(-c4ccccc4)c3cc12,-21,i,10,-4,15,-2,4,6,
O=C(COc1ccccc1Cl)Nc1ccc(C(=O)c2ccc(C(=O)O)cc2)cc1,-6,i,-2,-1,8,-17,0,3,
O=C(OCC(=O)N1CCN(c2ccccc2)CC1)c1ccc([N+](=O)[O-])s1,-6,·,7,·,·,0,3,1,
COc1ccc(CNC(=O)C2CCC(=O)N(CCCN3CCCC3=O)C2)c(OC)c1 (stereo not given),3,i,-14,2,-8,-4,0,4,
COc1ccc(N(CC(=O)NC2CCS(=O)(=O)C2)S(=O)(=O)c2ccc(Cl)c(Cl)c2)cc1 (stereo not given),-22,·,-8,·,·,·,-7,-3,
COc1cc(NS(=O)(=O)c2cc(NC(C)=O)ccc2OC)c(OC)cc1NC(=O)c1ccccc1,7,·,9,·,·,·,5,2,
O=C(Cc1ccccc1Cl)Nc1cccc(S(=O)(=O)N2CCOCC2)c1,·,i,10,-15,-3,8,2,0,
CCn1cnc2cc(NCc3ccc(N(C)C)cc3)ccc21,-31,i,-21,-11,?,2,5,7,
Cc1ccc(C(=O)Nc2cccc([N+](=O)[O-])c2)cc1S(=O)(=O)Nc1ccc(C(=O)O)cc1,·,i,5,1,-3,4,5,5,
Cc1ccc(NC(=O)CSCc2nc3c(nnn3Cc3ccc(F)cc3)c(=O)[nH]2)c(C)c1,·,i,-2,-4,-2,-4,2,6,
CN(C)C(=O)CSc1nc2cc(S(=O)(=O)N3CCOCC3)ccc2o1,5,·,-1,·,·,-21,-1,1,
O=C(Nc1cccnc1)c1c(F)cccc1F,·,i,·,3,7,8,7,1,
COc1ccc(C2CC(c3cccc(OC)c3)=NN2c2ccc(S(N)(=O)=O)cc2)cc1 (stereo not given),10,·,-13,·,·,·,-4,-2,
C=CCN1C(=O)c2ccc(C(=O)N3CCN(S(=O)(=O)c4ccc(C(C)C)cc4)CC3)cc2C1=O,·,i,12,·,·,-15,0,-3,
COc1ccc(-n2c(=O)c3ccccc3n(Cc3cccc(C)c3)c2=O)cc1OC,-17,i,17,-13,19,-15,·,·,
O=C(c1cc(COc2ccc(F)cc2F)on1)N1CCN(C2CCCC2)C(=O)C1,8,i,-7,2,8,-23,-4,-5,
C/C(CC(=O)Nc1cccc(Cl)c1Cl)=N\NC(=O)C(=O)N1CCCC1,1,i,-74,0,5,-2,-1,8,
COc1ccc(-n2cnnc2SC(C)c2nc3sc(C)c(C)c3c(=O)[nH]2)cc1 (stereo not given),·,i,-21,-11,4,·,·,·,
COc1ccc(C(NC(N)=O)c2ccccc2)cc1 (stereo not given),-11,i,·,-6,-3,-6,6,0,
O=C(O)CC(NCc1ccco1)C(=O)OCC1CCCO1 (stereo not given),-22,i,·,14,-6,7,3,5,
CCOc1ccccc1CNC(=O)c1cn(C)c(=O)c2c1c1ccccc1n2C,·,i,-3,12,-7,-5,-1,-2,
COC(=O)c1ccc(SCc2cnc(Cl)s2)cc1,-11,i,0,2,-4,0,1,-1,
Cc1cccc(N2C(=O)CN(Cc3ccccc3)C2=S)c1,-1,i,7,-9,5,-6,-1,6,
CC(C)C[C@H](NC(=O)N1CCn2c1nc1ccccc12)C(=O)N[C@@H](C(=O)O)c1ccccc1,-3,i,·,-15,-7,-4,9,6,
CC1CCCCN1C(=O)COc1ccc(F)cc1 (stereo not given),·,·,9,-10,8,18,-5,-2,
Cc1cc(S(=O)(=O)Nc2cccc(C(=O)O)c2)c(C)c(S(=O)(=O)c2ccc(Cl)cc2)c1,2,i,-24,-14,4,-13,4,3,
CNc1ncc(C(=O)c2ccccc2)s1,-5,i,-125,-9,-2,4,1,5,
Cc1cc(OCC(=O)NCc2cccnc2)ccc1[N+](=O)[O-],-22,i,11,1,-8,·,-3,0,
Cc1ccc(-c2nnc(SCc3ccccc3F)o2)cc1,·,i,-262,-7,-13,11,-2,1,
C/C=C\C(=O)Nc1cccc(C2=NOC3(C2)C[C@H](C(N)=O)N(C(=O)/C=C/CC)C3)c1 (stereo not given in full),4,i,-6,-4,10,-1,-6,4,
Cc1c(C(c2ccccc2O)c2c(C)n(C)n(-c3ccccc3)c2=O)c(=O)n(-c2ccccc2)n1C,-12,i,-10,-1,-12,-10,-1,2,
O=C(CN(Cc1ccc(Cl)cc1)S(=O)(=O)c1ccccc1)NCC1CCCO1 (stereo not given),17,i,·,-16,-18,-4,-3,-2,
Cc1cc(C(=O)OCC(=O)Nc2cccc([N+](=O)[O-])c2)c(C)o1,0,·,·,·,·,-4,3,1,
COc1cccc(Oc2nnnn2-c2ccccc2)c1,-15,i,-53,-6,-5,-12,5,-2,
CC[C@]12C(=O)N(C)C[C@H]([C@@H]3C(=O)N(C)C(=O)[C@@H]31)N2C(=O)c1ccc(F)cc1,4,·,-8,·,·,·,2,2,
S=C(Nc1ccc(Cl)cc1)N1CCCCC1,-23,i,-8,-4,5,16,2,1,
O=C1CCCCN1CC(=O)N1CCCC(Nc2ccc(F)c(F)c2)C1 (stereo not given),-1,i,-4,-10,2,4,-6,-3,
COc1ccc(NC(=O)C(CCCCNC(=O)OC(C)(C)C)NC(=O)OCc2ccccc2)cc1 (stereo not given),-15,i,·,-4,-4,7,1,1,
